MenB inh: blocks the Mycobacterium tuberculosis MenB enzyme | P9WNP5 | MenB enzyme assay, absorbance read-out; some hits fall short of the stated cut | inhibition, %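 (about 12 µg/mL by stock and volumes)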 | 100,000 compounds, 0.43% hits;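 active = mean of two replicates above 30%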;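 also: 0% = no compound and 100% = wells with inactive enzyme; the first replicate is given; strong numbers were not always called active; inactives centre near -10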
Target sequence (P9WNP5 whole entry, looked up): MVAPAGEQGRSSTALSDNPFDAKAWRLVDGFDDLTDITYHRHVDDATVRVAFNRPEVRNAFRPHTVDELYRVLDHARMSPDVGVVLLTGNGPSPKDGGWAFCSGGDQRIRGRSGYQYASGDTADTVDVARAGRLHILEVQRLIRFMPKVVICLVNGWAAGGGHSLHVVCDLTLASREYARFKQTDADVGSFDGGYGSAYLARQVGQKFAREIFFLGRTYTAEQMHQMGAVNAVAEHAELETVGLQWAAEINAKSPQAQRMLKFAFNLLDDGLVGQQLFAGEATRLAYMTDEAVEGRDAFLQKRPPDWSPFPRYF
Polio RdRp inh: poliovirus RNA polymerase inhibition; P03300; poliovirus polymerase elongation, fluorescence polarization; hits give low values; % elongation, % (compound at 16.7 µg/mL); 150,000 compounds, 0.66% hits; AID 588519; in the data active = % elongation below about 90%; also: some results filed as inactive read as strong as hits
Mtb MbtI inh: inhibitors of Mycobacterium tuberculosis siderophore enzyme MbtI; inhibition, %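 (about 17 µg/mL by stock and volumes)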; P9WFX0; purified MbtI enzyme, fluorescence intensity read-out; AID 493033; 100,000 compounds, 0.89% hits;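 active = above 50% in both replicates, above 80% if mildly self-fluorescent; inactive = the rest, strongly fluorescent compounds included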;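 also: 0% = mean of negative and 100% = mean of positive controls; one replicate is shown; some compounds called inactive have numbers as strong as hits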
Target sequence (P9WFX0 whole entry, looked up): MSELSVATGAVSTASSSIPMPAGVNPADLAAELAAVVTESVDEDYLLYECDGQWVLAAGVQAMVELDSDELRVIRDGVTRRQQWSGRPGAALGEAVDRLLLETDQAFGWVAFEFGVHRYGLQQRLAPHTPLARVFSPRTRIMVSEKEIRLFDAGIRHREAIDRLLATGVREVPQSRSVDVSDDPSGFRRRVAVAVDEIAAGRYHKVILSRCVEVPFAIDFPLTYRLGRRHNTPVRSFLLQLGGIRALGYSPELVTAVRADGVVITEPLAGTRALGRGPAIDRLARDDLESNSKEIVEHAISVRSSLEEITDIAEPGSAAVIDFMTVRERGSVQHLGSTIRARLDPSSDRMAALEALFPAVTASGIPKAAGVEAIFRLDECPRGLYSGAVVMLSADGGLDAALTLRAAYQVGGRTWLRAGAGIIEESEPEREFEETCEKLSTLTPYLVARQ
Polio RdRp inh intensity: recorded beside Polio RdRp inh, whose call it bears; % elongation; measured here: total intensity read-out; formula for this scale not given here;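 total fluorescence in place of polarization; lower means less elongation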
An asterisk follows results filed as active; . = not tested or not shown.

SMILES	MenB inh	Polio RdRp inh	Polio RdRp inh intensity	Mtb MbtI inh
COc1ccccc1C(=O)NCC(=O)N1CCN(S(=O)(=O)c2cc(C)ccc2C)CC1	-19	103	99	-20
N#C/C(=C\N1CCN(Cc2ccccc2)CC1)S(=O)(=O)c1ccccn1	8	101	102	0
Nc1nnc(CCCn2c(=O)oc3ccccc32)s1	-9	86*	90*	.
CC12CCC(c3c1nn(-c1ccccc1)c3C(F)(F)F)C2(C)C (stereo not given)	-29	104	112	19
N#Cc1c(SCCN2CCCCC2)sc2c(O)cc(=O)[nH]c12	-130	102	102	7
Cc1ccccc1CNC(=O)c1c(C)nc2ccccn2c1=O	1	104	103	107
Cc1ccc(N=Cc2cc(Br)ccc2O)c(S(=O)(=O)N2CCOCC2)c1	-3	101	122	1
N#Cc1ccccc1S(=O)(=O)NCc1ccco1	14	107	108	4
CCCNC(=O)Cn1cccc1C(=O)c1ccccc1	-2	103	106	-1
O=C(Oc1ccc2c(c1)OCC2=O)c1ccc(Cl)cc1	-5	99	100	-3
CN1C(=O)C2(NN=C(c3ccccc3)S2)c2cc(Br)ccc21 (stereo not given)	-92	103	97	51
OCCN(CCO)CC(O)C12CC3CC(CC(C3)C1)C2 (stereo not given)	2	102	109	.
CC1CCC(NC(=O)c2ccc3snnc3c2)CC1 (stereo not given)	-9	103	108	-8
NC(=O)c1ccc(NC(=O)CSc2cccc[n+]2[O-])cc1	.	100	99	11
C[C@@H](C(=O)OCN1C(=O)c2ccccc2C1=O)N1C(=O)C2CC=CCC2C1=O (stereo not given in full)	2	101	110	0
COc1ccc(-c2ocnc2C(=O)Nc2cccc(Oc3ccccc3)c2)cc1OC	-2	101	102	90
COC(CNC(=O)c1cnn2c(C)c(Cc3ccccc3C)c(C)nc12)OC	3	102	104	84
O=C(NC1CC1)c1cc(F)c(F)cc1Cl	.	101	107	-10
O=C1C=C2C=C[C@@H]3C[C@@]2(O1)[C@H]1CCCCN31	1	101	100	-8
CCNC(=O)c1cc2n(n1)CCCN(Cc1ccccc1)C2=O	14	101	102	1
CCOC(=O)c1sc(N(C)C(C)=O)nc1C	39*	99	98	19
CC1(C)C/C(=N/O)c2cc3c(nc2C1)CC(C)(C)C/C3=N\O	-11	99	102	2
COc1ccccc1CNC(=O)Cc1noc2ccccc12	-5	103	105	-10
O=C(Nc1nccs1)C1=COCCO1	-12	102	101	0
Cc1cccc(NC(=S)Nc2ccc(N(C)C)cc2)c1	-19	99	108	16
O=C(NCc1ccccn1)c1nn(-c2ccccc2)c(=O)c2ccccc12	-10	107	104	-16
O=C(COc1ccccc1)Nc1ccc2oc(=O)ccc2c1	-14	106	96	.
O=C(c1ccc(=O)[nH]n1)N1CCN(Cc2ccccc2)CC1	-26	108	97	-8
CC(C)COC(=O)CNc1n[nH]c(=O)[nH]c1=O	6	102	98	2
Cc1onc(-c2c(Cl)cccc2Cl)c1NC(=O)N(C)C	6	101	106	-9
CC(C)Sc1nc2ccccc2[nH]1	.	104	109	19
O=C1NC(=S)C(=C2CCCC2)S1	-27	89	104	77*
O=S(=O)(c1cc(O)cc(S(=O)(=O)C(F)(F)F)c1)C(F)(F)F	5	101	105	-11
CN(C(=O)Nc1cn(C)c2ccccc12)C1CCCCC1	-7	103	102	-13
FC(F)n1c2ccccc2c2ccccc21	-33	101	90	-61
COc1cccc(NC(=O)CCC(=O)Nc2cccc(OC)c2)c1	-3	105	99	.
CC1=NN(c2nc3ccccc3s2)C(=O)C1CCC(C)C (stereo not given)	-23	100	99	18
O=C1NC2(CCCCC2)N(C(=O)c2ccccc2)C2=C1CCCC2	-10	104	104	-2
Cc1ccc(S(=O)(=O)N(CCc2cccs2)CC(=O)O)cc1	-12	101	104	-15
O=C(Cc1ccccc1F)OCC(=O)c1cc2ccccc2o1	.	110	118	-327
O=C(O)C1CCN(C(=O)c2ccc(Cl)cc2)CC1	-7	100	99	-3
O=C(CSc1nc2ccccc2s1)NCCC1=CCCCC1	.	102	98	3
COC(=O)C1=C(\N2CCOCC2)CCCC/C=C\1C(=O)OC	5	102	104	12
CCS(=O)(=O)Nc1ccc2[nH]c(=O)[nH]c2c1	28	99	102	-1
COc1ccc(CNC(=O)C(OC)c2ccccc2)cc1 (stereo not given)	1	100	99	.

Just Polio RdRp inh and Polio RdRp inh intensity, for 4 of the compounds above:
canonical_smiles	Polio RdRp inh	Polio RdRp inh intensity
CC(C)COC(=O)CNc1n[nH]c(=O)[nH]c1=O	102	98
COC(=O)C1=C(\N2CCOCC2)CCCC/C=C\1C(=O)OC	102	104
O=C(c1ccc(=O)[nH]n1)N1CCN(Cc2ccccc2)CC1	108	97
COc1ccc(CNC(=O)C(OC)c2ccccc2)cc1 (stereo not given)	100	99

(further entries)
SMILES	MenB inh	Polio RdRp inh	Polio RdRp inh intensity	Mtb MbtI inh
CCOc1ccc(NS(=O)(=O)c2cccc(C(=O)Nc3nnc(C4CC4)s3)c2)cc1	-8	105	106	10
Oc1ccc(N=Cc2ccco2)cc1	-71	100	103	87
CCCN(CCC)S(=O)(=O)c1ccc(C(=O)Nc2ccc3c(c2)OCO3)cc1	-19	103	95	-9
CC(=O)NC(c1ccc(Cl)cc1)C1CCCCC1=O (stereo not given)	.	101	99	-8
C=CCN1CCN(C(=O)Cc2cccs2)CC1	3	104	104	-6
CCOC(=O)C1=C(Nc2ccc(OC(C)=O)cc2)C(=O)N(C(C)(C)C)C1	-19	104	101	-10
Cc1cc(C(=O)COC(=O)c2n[nH]c(=O)c3ccccc23)c(C)n1-c1ccc(S(N)(=O)=O)cc1	5	110	110	11
Cc1cc(C(=O)COC(=O)c2ccc(S(=O)(=O)NCc3ccco3)cc2)c(C)n1C	-32	.	.	6
CC1C(C#N)=C(N)SC(N)=C1C#N	-128	79	174	6
C#CCn1c(=NC(=O)C(C)(C)C)sc2cccc(OCC)c21	-26	104	92	-3
O=C(NCc1ccccc1CN1CCOCC1)c1ccc(-n2cccn2)cc1	-1	102	106	-1
COC(=O)c1ccc2c(c1)N(Cc1ccccc1)C(=O)c1ccccc1S2	-9	102	105	0
CCn1c(CNC(=O)NCc2ccccc2)nnc1SC	5	100	103	-2
Cc1cc2oc(=O)sc2cc1NS(=O)(=O)c1cccc2cccnc12	-69	104	101	8
c1ccc2[nH]c(CCCCc3nc4ccccc4[nH]3)nc2c1	-14	102	103	-4
CCc1ccc(C2Nc3cc(Cl)ccc3C3=NCCCN32)cc1 (stereo not given)	-12	102	102	90
O=S(=O)(Nc1ccc2c(c1)nc1n2CCN(Cc2ccccc2)C1)c1ccc(F)cc1	11	99	103	26
CC(C)(C)Nc1nc(=O)[nH]c(=O)[nH]1	2	108	110	.
CCC(C(=O)Nc1cccc(C(=O)O)c1)c1ccccc1 (stereo not given)	-16	101	102	-5
O=C1CSC(=O)N1CCOc1ccc(F)cc1	-56	102	101	-11
CCCn1nc(C(=O)NCC2COc3ccccc3O2)c2ccccc2c1=O (stereo not given)	-17	106	94	-3
CCC(C)(C)n1nnnc1C(c1ccccc1)N1CCc2ccccc2C1 (stereo not given)	-7	96	98	-4
Nc1c(C(=O)N/N=C/c2ccc3c(c2)OCO3)cnn1-c1ccccc1	-8	104	101	-9
N#Cc1c(-c2ccccc2)cc2c(c1N)c(=O)oc1ccccc12	-4	98	108	-13
CCSc1ncc(Cl)c(C(=O)NCc2ccccc2)n1	-26	103	95	-4
COc1cc(/C=C(\C#N)C(=O)OC(C)(C)C)cc(OC)c1	6	102	105	-7
NNC(=O)c1cc2cc(OC(F)(F)F)ccc2[nH]1	6	98	102	19
C=CCn1c(=S)sc2c(=O)n(CC(=O)Nc3ccc(C)c(C)c3)cnc21	-4	105	109	36
S=c1[nH]c(-c2ccccc2)cn1/N=C/c1cccs1	-48	102	105	8
CCN(CC)S(=O)(=O)c1cc(C(=O)Nc2ccccc2C)ccc1C	-28	102	104	-1
CCC(C)c1ccc(NC(=O)CSc2ncn[nH]2)cc1 (stereo not given)	.	98	99	-10
CCN1CCN(CC(=O)c2ccc(C)cc2)CC1	-1	103	92	6
O=C(/C=C/c1ccccc1)Nc1nnc(-c2ccc3c(c2)CCCC3)o1	-27	98	102	-1
CC1CCN(C(=S)NC2CCCCC2)CC1	1	102	100	14
CC(=O)N1C(=O)C2(C(C#N)=C(N)Oc3cc(C)oc(=O)c32)c2ccccc21 (stereo not given)	1	102	105	3
CN(C(=O)CSc1ncnc2ccccc12)C1CCCCC1	.	102	107	-5
O=C(Nc1ccc2c(c1)OCO2)c1ccc(Br)o1	-13	99	103	.
O=C1C2CCCN2C(=O)N1c1ccc(Br)cc1 (stereo not given)	8	103	103	2
CC(C)Nc1cc(N2CCN(Cc3ccc4c(c3)OCO4)CC2)c2noc3c2c1C(=O)c1ccccc1-3	-17	75	195	-4
CCCCN1C(=O)c2ccc(C(=O)OCC(=O)c3ccc(CNC(C)=O)o3)cc2C1=O	-25	108	114	-9
Cn1ncc(N)c1C(=O)N1CCOCC1	3	102	100	2
c1ccc2[nH]c(CCCc3nc4ccccc4[nH]3)nc2c1	-31	96	90	.
CN1C(=O)/C(=C/c2ccccc2)NC1=S	-54	103	103	-5
C=CCn1c(N)cc(=O)nc1SCC(=O)NC(C)c1ccccc1 (stereo not given)	0	100	104	0
O=C(NC1CCCC1)C(c1ccc(O)cc1)N(C(=O)Cn1nnc(-c2cccs2)n1)C1CCCC1 (stereo not given)	15	101	103	-7

Full records, looked up by structure.
CN1C(=O)/C(=C/c2ccccc2)NC1=S is listed as MenB inh = -54; Polio RdRp inh = 103; Polio RdRp inh intensity = 103; Mtb MbtI inh = -5
CCn1c(CNC(=O)NCc2ccccc2)nnc1SC is listed as MenB inh = 5; Polio RdRp inh = 100; Polio RdRp inh intensity = 103; Mtb MbtI inh = -2
CC1C(C#N)=C(N)SC(N)=C1C#N is listed as MenB inh = -128; Polio RdRp inh = 79; Polio RdRp inh intensity = 174; Mtb MbtI inh = 6

A different layout for some results above.
> Cn1ncc(N)c1C(=O)N1CCOCC1
- MenB inh = 3
- Polio RdRp inh = 102
- Polio RdRp inh intensity = 100
- Mtb MbtI inh = 2
> c1ccc2[nH]c(CCCc3nc4ccccc4[nH]3)nc2c1
- MenB inh = -31
- Polio RdRp inh = 96
- Polio RdRp inh intensity = 90
- Mtb MbtI inh = .
> CN1C(=O)/C(=C/c2ccccc2)NC1=S
- MenB inh = -54
- Polio RdRp inh = 103
- Polio RdRp inh intensity = 103
- Mtb MbtI inh = -5
> C=CCn1c(N)cc(=O)nc1SCC(=O)NC(C)c1ccccc1 (stereo not given)
- MenB inh = 0
- Polio RdRp inh = 100
- Polio RdRp inh intensity = 104
- Mtb MbtI inh = 0

Going on with the list:
SMILES	MenB inh	Polio RdRp inh	Polio RdRp inh intensity	Mtb MbtI inh
CCOc1ccccc1NC1=NC(C)CS1 (stereo not given)	-8	105	107	4
CCn1nc(-c2ccccc2)nc2c(=O)n(C)c(=O)nc1-2	-7	-4	156	20
CN(CC1CCCO1)S(=O)(=O)c1ccc(C(=O)Nc2nnc(-c3ccccc3)o2)cc1 (stereo not given)	-37	100	100	0
O=C(CN1CCCCCC1=O)OCc1ncc(-c2ccccc2)o1	-17	96	104	-12
CC(C)(C)c1ccc(C(=O)N2CCC(C(=O)NCc3ccco3)CC2)cc1	-5	102	101	8
O=C(c1ccc2c(c1)OCCO2)N1CCCSC1=Nc1ccccc1	-12	104	107	8
Nn1cc(-c2ccccc2)nc1SCC(=O)c1ccc(Cl)s1	-10	105	102	-18
Cc1nnc2n(c1=O)C(CS(=O)(=O)c1ccccc1)CS2 (stereo not given)	-42	102	101	5
COc1ccc(S(N)(=O)=O)cc1C	-3	100	103	-21
O=C(/C=C/c1ccco1)N1CCn2c(nc3ccccc32)C1	-3	102	104	37
c1ccc2[nH]c(Cc3nnc4n3CCCCC4)nc2c1	.	104	99	-9
O=C(NCCc1ccccc1)c1ccc2c(c1)N(Cc1ccccc1)C(=O)CS2	5	104	108	-5
Cc1sc2nc(SCC(=O)NCCCN3CCOCC3)[nH]c(=O)c2c1C	23	102	103	4
Cc1cc(N)n(-c2ccc(S(=O)(=O)c3ccc(C(C)C)cc3)cc2)n1	-20	102	105	-3
Cc1cc(-c2nc(C)c(-c3nnc(SCC(=O)Nc4ccccc4)n3C)s2)no1	-4	107	104	50

Compounds from the list above that have a thiophene ring, fused or not:
SMILES	MenB inh	Polio RdRp inh	Polio RdRp inh intensity	Mtb MbtI inh
N#Cc1c(SCCN2CCCCC2)sc2c(O)cc(=O)[nH]c12	-130	102	102	7
Cc1ccc(S(=O)(=O)N(CCc2cccs2)CC(=O)O)cc1	-12	101	104	-15
C=CCN1CCN(C(=O)Cc2cccs2)CC1	3	104	104	-6
S=c1[nH]c(-c2ccccc2)cn1/N=C/c1cccs1	-48	102	105	8
O=C(NC1CCCC1)C(c1ccc(O)cc1)N(C(=O)Cn1nnc(-c2cccs2)n1)C1CCCC1 (stereo not given)	15	101	103	-7
Nn1cc(-c2ccccc2)nc1SCC(=O)c1ccc(Cl)s1	-10	105	102	-18
Cc1sc2nc(SCC(=O)NCCCN3CCOCC3)[nH]c(=O)c2c1C	23	102	103	4

Bioassay records from PubChem.
